Source: PubChem (National Center for Advancing Translational Sciences (NCATS))
SARS PLpro yeast = blocks SARS-CoV papain-like protease in a yeast assay; S. cerevisiae expressing SARS-CoV PLpro, growth rescue; control for the full effect not named in the record; Potency, µM (highest dose often 32.9 µM), for the others: at the top dose activity, positive = growth rescue; actives 0.19% (n = 330,000); further: 0% is about no effect; nearly all actives have a fitted effect of over 55% in size; growth read by luminescence after 48 h
RE007 growth inh = less growth of the S. pombe RE007 Vpr strain; Potency, µM (series often up to 92.2 µM), for inactives: top-dose activity change, negative = less growth; AID 651644; S. pombe RE007 Vpr strain, BacTiter-Glo ATP luminescence, 24 h; control for the full effect not named in the record; actives 0.21% (n = 360,000); active = well fitted falling curve with a large enough effect; inconclusive = small, poorly fitted or top-dose-only effect; inactive = no such curve, though single readings can be large or run the other way;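 further: on the % scale 0 is the no-effect control and ±100 the full control effect; nearly all actives have a fitted effect of over 50% in size; the assay follows cell death caused by Vpr and the record does not say whether a fall means rescue or toxicity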
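Fission yeast strain RE007, carrying one chromosomally integrated HIV-1 vpr copy, was seeded at OD 0.01 in PMG+AL medium with 23 nL pinned compound. After 24 h at 30 °C and 99% humidity, viability was read by BacTiter-Glo luminescence.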
StopGo reporter = FMDV 2A StopGo reporter, luciferase signal | human cells with a luciferase reporter of 2A StopGo recoding; control for the full effect not named in the record | Potency, µM (series often up to 57.9 µM), for the others: at the top dose signal change, negative = less light | actives 1.2% (n = 410,000); active = well fitted falling curve with a large enough effect; inconclusive = small, poorly fitted or top-dose-only effect; inactive = no such curve, though single readings can be large or run the other way; tested in HEK293T cells; further: on the % scale 0 is the no-effect control and ±100 the full control effect; nearly all actives have a fitted effect of over 45% in size; luciferase light after 4 h
Lassa entry inh = blocks Lassa virus binding to or entry into cells. Lassa virus pseudotype entry inhibition, cell reporter; control for the full effect not named in the record. Potency, µM (series often up to 37.9 µM), for the others: top-dose activity change, negative = inhibition, usual class: inhibitors. actives 1.2% (n = 300,000); active means well fitted inhibition curve with a large enough effect; inconclusive means small, poorly fitted or top-dose-only effect, or effect the other way; inactive means flat fitted curve, though single readings scatter; tested in HEK293 cells; further: on the % scale 0 is the no-effect control and ±100 the full control effect; nearly all actives have a fitted effect of over 50% in size; luciferase read-out
NS1 inh = inhibitors of influenza NS1 protein function; S. cerevisiae slowed by influenza A NS1, growth recovery by OD600; actives 0.4% (n = 270,000); Potency, µM (titrated, usually from 46.1 µM), without a hit: top-dose activity, positive = more growth; further: actives are rising curves; nearly all actives have a fitted effect of over 50% in size
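Growth recovery, yeast-based: influenza A NS1 expressed in S. cerevisiae causes slow growth, and suppressors are detected by OD600. The parent strain without NS1 is used as positive control.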
MARV entry inh = Marburg virus entry inhibition; Potency, µM (titrated, usually from 37.8 µM), for the others: top-dose activity change, negative = inhibition, usual class: inhibitors; actives 1.8% (n = 300,000); Marburg virus pseudotyped entry inhibition, cell reporter; control for the full effect not named in the record; about a third of the inactives were read at about 46 µM; active = well fitted inhibition curve with a large enough effect; inconclusive = small, poorly fitted or top-dose-only effect, or effect the other way; inactive = flat fitted curve, though single readings scatter; tested in HEK293 cells; about a fifth of its hits are not listed in these tables; further: on the % scale 0 is the no-effect control and ±100 the full control effect; luciferase read-out
Cruzain Triton = inhibitors of Trypanosoma cruzi cruzain with detergent; Potency, µM, without a hit: max response, negative = inhibition, usual class: inhibitors; actives 0.43% (n = 200,000); AID 1478; purified cruzain, Z-FR-AMC fluorescence, 0.01% Triton; P25779; active means well fitted curve in the direction sought with a large enough effect; inconclusive means small, poorly fitted or top-dose-only effect, or another doubt; inactive means no such curve, though single readings can be large; an effect the other way counts as inactive or inconclusive;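 further: plate controls were neutral wells for no effect and buffer without enzyme for full effect; nearly all actives have a fitted effect of over 40% in size; top concentration of the series not given in the record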
Target sequence (P25779 123-467 limits assumed): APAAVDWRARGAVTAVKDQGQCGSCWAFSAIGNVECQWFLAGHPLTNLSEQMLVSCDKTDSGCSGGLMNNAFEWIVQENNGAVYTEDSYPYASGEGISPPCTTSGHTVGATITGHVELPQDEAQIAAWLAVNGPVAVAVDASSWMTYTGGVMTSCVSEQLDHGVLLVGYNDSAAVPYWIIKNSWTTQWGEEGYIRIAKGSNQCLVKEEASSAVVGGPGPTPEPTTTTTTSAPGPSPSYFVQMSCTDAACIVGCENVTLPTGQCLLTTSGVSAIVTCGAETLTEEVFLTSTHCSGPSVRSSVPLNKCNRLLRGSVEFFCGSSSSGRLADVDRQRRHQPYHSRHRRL
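Steps: dispense cruzain (1.5 nM final) in acetate buffer pH 5.5 with DTT and 0.01% Triton X-100; pin-transfer compounds; incubate 15 min RT; add Z-FR-AMC (2 uM final); read fluorescence every 30 s, using the 60 s intensity change.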
Cruzain inh noDet = cruzain (T. cruzi) inhibition without detergent | P25779 | purified cruzain, Z-FR-AMC fluorescence, no detergent | Potency, µM, for the others: max response, negative = inhibition, hits mostly inhibitors | AID 1476 | actives 2.3% (n = 200,000); active means well fitted curve in the direction sought with a large enough effect; inconclusive means small, poorly fitted or top-dose-only effect, or another doubt; inactive means no such curve, though single readings can be large; an effect the other way counts as inactive or inconclusive;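 further: plate controls were enzyme without inhibitor for no effect and buffer without enzyme for full effect; nearly all actives have a fitted effect of over 40% in size; top concentration of the series not given in the record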
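Detergent-free condition (0.00005% Triton X-100) in acetate buffer pH 5.5 with DTT. 1.5 nM enzyme and compound were pre-mixed 15 min, then 2 uM Z-FR-AMC substrate added; reaction progress from fluorescence change between first and third reads (60 s).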
Numbers without * were called inactive; ? = inconclusive; . = no result given; [ ] = dose if it differs, or a comment. Unless noted, the call rests on the fitted dose curve; in most records, active means well fitted rising curve with a large enough effect; inconclusive means small, poorly fitted or top-dose-only effect; inactive means no such curve, though single readings can be large or run the other way. Potency means the concentration at half of the fitted maximal effect.

SMILES	SARS PLpro yeast	RE007 growth inh	StopGo reporter	Lassa entry inh	NS1 inh	MARV entry inh	Cruzain Triton	Cruzain inh noDet
OCCCC1CCCCN1Cc1nc(Cc2ccccc2Cl)no1 (stereo not given)	-3%	14%	-7%	-16%[46.1 µM]	3%	?	.	.
Cc1ccc2c(CC(=O)Nc3cccc(C(F)(F)F)c3)coc2c1	.	.	0%	-28%[46.1 µM]	.	13%[46.1 µM]	-15%	-12%
CC(C)C(OC(=O)c1cc2sccc2n1C)C(=O)NCC1CCCO1 (stereo not given)	-2%	14%	.	16%	-6%	-17%	6.7%	22%
Cc1ccc(NCc2n[nH]c(=S)n2-c2cccc(Cl)c2)cc1	-2%	-8%	-14%	.	.	12%[46.1 µM]	.	.
CCCOc1ccc(NC(=O)CC2Nc3ccccc3NC2=O)cc1 (stereo not given)	-1%	2%	-7%	.	3%	.	.	.
O=C(O)CCS(=O)(=O)c1cccc2cccnc12	11%	2%	17%	?	5%	12%	-0.6%	-1%
Cc1cc2ccccc2nc1SCC(=O)N1CCCC1	3%	4%	-2%	0%	-70%	10%	-4.5%	2%
NC(=O)CSc1nnc2ccc(-c3ccc(F)cc3)nn12	0%	14%	-22%	.	6%	.	.	.
Cc1ccc(CNC(=O)Cc2ccc(NC3=NC4CS(=O)(=O)CC4S3)cc2)cc1 (stereo not given)	1%	0%	7%	.	11%	.	.	.
CC1(C(=O)O)CCC(C(=O)Nc2cccc(F)c2)C1(C)C (stereo not given)	3%	10%	-12%	11%[46.1 µM]	-4%	4%[46.1 µM]	.	.
COc1ccc(C)cc1NC(=O)NCc1cccn1Cc1ccccc1	.	.	-16%	22%[46.1 µM]	.	.	-7.8%	-5%
O=C(Nc1ccc2oc(-c3cccnc3)nc2c1)c1ccc(Br)cc1	.	.	-20%	0%[46.1 µM]	.	0%[46.1 µM]	0.5%	6%
Cc1cccc(Cn2c(CNS(=O)(=O)c3ccc(Cl)s3)nc3cccnc32)c1	.	.	62%[activator]	?	.	.	-5.1%	25%
COc1ccc(Nc2ncnc3ccc(Br)cc23)c(OC)c1	-12%	-7%	4µM*	.	-48%	.	.	.
Cc1nc(CSc2nnc(N)s2)cs1	-1%	14%	-19%	5%	.	?	.	.
CCn1nnc2cc(C(=O)Nc3ccc(C(=O)OC(C)C)cc3)ccc21	-19%	9%	-14%	3%	.	-7%	.	.
COc1ccc(N2CCN(C(=O)c3ccc(N(C)S(=O)(=O)c4ccc(OC)cc4)cc3)CC2)cc1	1%	-29%	?	?	-5%	0%[46.1 µM]	.	.
CCCCNC(=S)NC1CCCC1	10%	1%	-2%	24%	-5%	?	2.2%	11%
Cc1ccc(OC(=O)C23CC4CC(CC(C4)C2)C3)c(C)n1	26%	18%	-9%	-13%	-4%	1%	-6.2%	10%
CC(=O)c1ccc(NC(=O)CSc2nc3nn(-c4ccccc4)c(=O)c-3c3n2CCCCC3)cc1	.	-7%	-3%	-1%	.	24%	.	.
COc1cc(OC)cc(C(=O)n2cnnc2N)c1	11%	0%	-5%	3%	4%	-3%	-5.9%	-2%
COc1ccc(CN=CC2=C(O)CC(C)(C)CC2=O)cc1	-10%	-4%	38%[activator]	11%	-4%	?	2.1%	-4%
COc1ccc(C2(C(=O)c3ccccc3)C(=O)c3ccccc3C2=O)cc1	1%	64%	5%	.	-3%	.	.	.
Cc1nnc2sc(SCc3ccc(Br)cc3)nn2c1=O	0%	9%	-11%	0%	.	4%[46.1 µM]	.	.
O=C(c1ccc(F)cc1)C(C(=O)N1CCCCC1)n1ccccc1=O (stereo not given)	0%	13%	-11%	3%[46.1 µM]	0%	-8%[46.1 µM]	.	.
CCOc1ccc(NC(=O)CC2C(=O)N(c3ccc(OCC)cc3)C(=S)N2C2CC2)cc1 (stereo not given)	-6%	-5%	-14%	?	-4%	-5%	.	.
COc1ccc(NC(=O)CSc2nnc(Cn3c(=O)sc4ccccc43)n2C)cc1OC	-22%	0%	-13%	.	-3%	.	-3.0%	11%
Cn1c(SCC(=O)Nc2ccc(N3CCOCC3)cc2)nnc1-c1ccco1	0%	4%	14%	0%[46.1 µM]	1%	9%[46.1 µM]	.	.
O=C(Nc1cc(S(=O)(=O)N2CCCCC2)ccc1Cl)C1=NN(c2ccccc2)C(=O)CC1	-4%	1%	1%	?	7%	10%[46.1 µM]	.	.
O=C(Cn1cnc(Cl)c1Cl)c1ccc(F)cc1	0%	-24%	-5%	1%[46.1 µM]	.	?	.	.
O=C(Nc1ccccc1)c1sc(Cl)nc1-c1ccccc1	-4%	13%	-15%	-1%	-6%	-5%	-6.7%	-8%
Cc1ccc(-n2c(Cc3ccccc3)nnc2SCc2nc(-c3cccs3)no2)cc1	.	.	-21%	?	.	-25%[46.1 µM]	-11%	-6%
Cc1cc(C)nc(NC2=NCCN2C(=O)NC2CCCCC2)n1	6%	-20%	-14%	-14%	-6%	-18%	3.9%	-1%
COc1ccc(CCNC(=O)c2ccccc2NC(=O)CN2CCN(c3ccccc3O)CC2)cc1	5%	-3%	?	?	.	?	.	.
O=C(Nc1ccccc1F)c1ccc2snnc2c1	-7%	-23%	46%[activator]	.	-18%	.	.	.
CC(NC(=O)CCSCCC(=O)NC(C)c1ccccc1)c1ccccc1 (stereo not given)	-5%	.	-21%	6%	-10%	?	-5.9%	-11%
CCOC(=O)CNC(=S)N(CCCN1CCCCC1)Cc1cccs1	1%	9%	4%	-13%	.	?	.	.
O=S(=O)(NCC(O)c1ccccc1)c1ccc(-c2ccccn2)s1 (stereo not given)	1%	4%	8%	?	-2%	-1%[46.1 µM]	.	.
c1ccc(CSc2n[nH]c(-c3ccco3)n2)cc1	-8%	1%	0%	?	-96%	16%	0.0%	0%
O=[N+]([O-])c1ccc(O[C@@H]2O[C@H](CO)[C@@H](O)[C@H](O)[C@H]2F)c([N+](=O)[O-])c1	.	.	.	3%	-33%	?	-3.7%	5%
COc1ccc(CCn2c(-c3ccccc3)nc3c(c(=O)c4ccccc4n3C)c2=O)cc1	-28%	.	.	-6%	13%	14%	0.3%	-26%
COc1ccc2nc(NC(=O)Cn3cnc4c(=O)n(C)c(=O)n(C)c43)sc2c1	1%	-21%	5%	9%	-4%	-3%	-3.3%	-2%
C[N+](C)(C)CCCCCCC(=O)/C=N/O	3%	0%	-3%	-1%	-1%	5%	1.1%	-1%
COc1cc2[nH]c(=O)n(Cc3ccc(C(=O)NCc4ccccc4)cc3)c(=O)c2cc1OC	.	.	-15%	-10%[46.1 µM]	.	5%[46.1 µM]	-8.1%	?
Cc1cccc(/C=C2\Sc3ccc(C(=O)N4CCOCC4)cc3N(C)C2=O)c1	-4%	-9%	2%	.	-20%	.	.	.
COc1cccc(OCC(Cn2cnc3ccccc32)OC(C)=O)c1 (stereo not given)	-1%	-5%	-3%	.	-1%	.	.	.
COc1cccc(Cn2c(CNS(=O)(=O)c3ccc(F)c(Cl)c3)nc3cccnc32)c1	.	.	46%[activator]	13%[46.1 µM]	.	.	-8.9%	-9%
C=CCn1c(SCC(=O)N2CCc3ccccc3C2)nnc1-c1ccncc1	22%	-1%	?	?	-18%	-4%	-2.2%	-3%
Cc1ccccc1-n1c(O)c(/C=C2/C(c3ccccc3)=Nc3ccccc32)c(=O)[nH]c1=O	-84%	?	22µM*	?	-15%	?	-6.5%	-6%
CCOC(=O)N/N=C\c1ccc(-c2cc(Cl)ccc2Cl)o1	-1%	-8%	-12%	?	-4%	?	.	.
O=C(NCC(=O)N1CCN(S(=O)(=O)c2ccc3c(c2)OCCO3)CC1)c1ccccc1Cl	-3%	-2%	-2%	5%	.	17%	.	.
Cc1ccc(NC(=O)CN2C(=O)NC(Cc3ccccc3)C2=O)cc1 (stereo not given)	2%	0%	0%	-1%	3%	?	2.4%	2%
COC(=O)C(O)(c1c[nH]c2ccccc12)C(F)(F)F (stereo not given)	-2%	4%	-16%	6%	26%	3%	-7.5%	-1%
CC(=O)c1ccc(NC(=O)Cn2nc(C(F)(F)F)c3c2CCCC3)cc1	.	.	16%	20%[46.1 µM]	.	9%[46.1 µM]	-9.4%	17%
NC(=S)Nc1cc(Cl)cc(Cl)c1	1%	-13%	-1%	1%	3%	14%[14.2 µM]	.	.
Fc1ccccc1/C=N/Nc1nn[nH]n1	3%	-6%	-14%	2%	3%	3%	-3.6%	-4%
O=C(Cn1cnc2ccccc2c1=O)NCCC(=O)N1CCN(c2ccccc2)CC1	3%	7%	-1%	14%	-1%	-3%	3.0%	19%
O=C(CCCc1c[nH]c2ccccc12)NCc1ccccc1F	-2%	-17%	24%	7.9µM*	-11%	-19%[46.1 µM]	.	.
CC(C)(C)NC(=O)C(c1cccs1)N(CC1CCCO1)C(=O)Cn1nnc(-c2cccs2)n1 (stereo not given)	-9%	2%	15%	-9%	-11%	-5%	1.5%	6%
Cc1ccccc1Cn1c2ccccc2c2cnn(CC(=O)NCCCc3ccccc3)c(=O)c21	.	.	-21%	-23%[46.1 µM]	.	24%[46.1 µM]	-1.5%	1%
(continued)
SMILES	SARS PLpro yeast	RE007 growth inh	StopGo reporter	Lassa entry inh	NS1 inh	MARV entry inh	Cruzain Triton	Cruzain inh noDet
COc1ccc(CNC(=O)C2CCCN(S(=O)(=O)N3CC(C)CC(C)C3)C2)c(OC)c1 (stereo not given)	-6%	4%	-28%	.	6%	.	.	.
COC(=O)c1sccc1NC(=S)N1CCCCC1	1%	-1%	0%	9%	5%	-5%	-1.2%	-2%
CCCCc1nc2sc3c(=O)n(N)cnc3c2c2c1CCCC2	2%	2%	-5%	.	6%	.	2.0%	?
CC(C)(C)C(=O)N1CCN(c2nc3ccccc3o2)CC1	-2%	6%	2%	0%[46.1 µM]	.	13%[46.1 µM]	.	.
COc1c(F)c(F)c(-c2csc(N)n2)c(F)c1F	.	-13%	22%	-4%	-8%	9%	.	.
CC(=O)c1cccc(NC(=O)C(CC(C)C)NS(=O)(=O)c2ccc3c(c2)CCN3C(C)=O)c1 (stereo not given)	.	.	19%	10%[46.1 µM]	.	16%[46.1 µM]	-2.7%	-1%
CC(C)CCNC(=O)CCn1c(=O)c2cccn2c2cccnc21	.	.	-1%	18%[46.1 µM]	.	.	-0.3%	14%
